Assay outcomes (PubChem)
HSV augment = increases HSV replication in cells. maximum fold increase. AID 1956. HSV replication augmentation in cells, fold increase. 0.005% of 220,000 active;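 active means peak rise of 1.5-fold or more in the series; tested in PC3 cells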;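 further: first round at 10 µM; read as green reporter fluorescence; hits show the peak of a series up to 25 µM; 1 = signal of infected wells without compound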
RGS16-Gao HTS = modulates binding between human RGS16 and Galphao. binding response (% of control), % at 10 µM. bead-based flow cytometry RGS16-Galphao binding, fluorescence; actives lie on both sides. AID 1441. 0.38% of 220,000 active;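 active means below 25% or above 175%, edge rows of some plates excepted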;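 further: Galphao activated by GDP with aluminum fluoride before binding; 100% = wells without compound and 0% = beads without RGS; some results beyond the cut were filed as inactive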
Target sequence (O15492 whole entry, looked up): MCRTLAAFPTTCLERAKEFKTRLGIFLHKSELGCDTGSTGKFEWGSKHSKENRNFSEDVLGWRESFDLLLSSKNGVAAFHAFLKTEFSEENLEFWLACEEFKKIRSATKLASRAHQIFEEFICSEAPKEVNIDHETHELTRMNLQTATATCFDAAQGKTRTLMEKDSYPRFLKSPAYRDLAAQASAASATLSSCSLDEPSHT
Target sequence (P09471 whole entry, looked up): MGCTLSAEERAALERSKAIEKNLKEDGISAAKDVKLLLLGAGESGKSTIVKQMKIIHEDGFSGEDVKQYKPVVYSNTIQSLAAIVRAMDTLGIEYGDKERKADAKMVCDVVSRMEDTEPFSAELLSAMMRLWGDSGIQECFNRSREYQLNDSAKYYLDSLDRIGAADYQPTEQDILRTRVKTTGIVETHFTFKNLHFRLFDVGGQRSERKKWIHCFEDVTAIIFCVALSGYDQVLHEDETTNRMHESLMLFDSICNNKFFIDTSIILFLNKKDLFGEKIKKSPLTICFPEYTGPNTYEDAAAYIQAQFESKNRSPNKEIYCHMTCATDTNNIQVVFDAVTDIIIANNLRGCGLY
GALR2 ag = GALR2 (human) receptor agonism. activation, %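 (tested at 5 µM)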. 0.48% of 140,000 active. GALR2-expressing cells, agonist activation read-out;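 active means above mean plus 3 SD of all compounds, about 5% in these data, not always enough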;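 further: 0% = vehicle buffer wells and 100% = reference agonist at full effect; tested in CHO reporter cells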
Target sequence (O43603 whole entry, looked up): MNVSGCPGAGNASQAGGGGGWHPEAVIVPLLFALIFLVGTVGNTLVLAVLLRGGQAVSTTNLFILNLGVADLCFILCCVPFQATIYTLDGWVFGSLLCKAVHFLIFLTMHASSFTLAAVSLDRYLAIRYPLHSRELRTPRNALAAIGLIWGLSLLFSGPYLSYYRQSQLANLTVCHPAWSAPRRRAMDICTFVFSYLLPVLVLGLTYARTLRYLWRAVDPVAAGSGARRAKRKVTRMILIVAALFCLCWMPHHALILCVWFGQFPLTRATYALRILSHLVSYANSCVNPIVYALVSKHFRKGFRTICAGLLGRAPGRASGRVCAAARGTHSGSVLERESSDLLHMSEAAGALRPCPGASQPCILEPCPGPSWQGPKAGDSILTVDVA
PKD1 inh = inhibitors of human PKD1 kinase | AID 797 | 0.056% of 200,000 active | Q15139 | PKD1 kinase fluorescence polarization assay | inhibition, %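 (about 10 µM by stock and volumes)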;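 active means inhibition of 50% or more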;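 further: controls were vehicle for no effect and a reference inhibitor for full effect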
INS promoter inh = TRM-6 insulin promoter activity inhibition. TRM-6 cells (human fetal islet line), insulin promoter-eGFP reporter, imaging; reporter expression induced with tamoxifen. inhibition, % at 2 µM. 0.9% of 130,000 active. AID 1273;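 active means inhibition above the mean plus 3 SD, with well images judged a real hit on visual review, cut at about 60% in these data, passing the limit was not always enough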
INS promoter inh cell count = further read-out of INS promoter inh, marked with its call; normalized cell count, %; measured here: cell count, toxicity; reference of the scale not given here;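 cells exposed to compound for 48 h; stained nuclei by imaging scaled within each plate; lower means fewer cells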
HSV augment primary fold = second read-out of HSV augment, no call of its own (marks repeat the call); fold increase; compound at 10 µM; measured here: primary screen fold increase 10 uM; tested in PC3 cells;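 GFP signal in the first replicate; 1 = infected wells without compound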
The depositor's hits bear a star; i = inactive; . = not tested or not shown.

Each structure is followed by: HSV augment, HSV augment primary fold, RGS16-Gao HTS, GALR2 ag, PKD1 inh, INS promoter inh, INS promoter inh cell count
CCOC(=O)NC(=O)/C(C#N)=N/Nc1c(F)cccc1F
 : i, 0.83, 99, -0.2, -1, ., .
O=C(CSc1nnc(-c2cccnc2)n1Cc1ccco1)c1ccc(Cl)cc1
 : i, 1, 65, -2.6, -15, ., .
Cc1ccc(S(=O)(=O)N/N=C/c2cnn(C)c2C)cc1
 : ., ., 99, -1.8, 1, -9, 101
COc1ccc(CCNC(=O)c2nn(C)cc2Cl)cc1
 : ., ., 104, -0.6, 1, 22, 141
O=[N+]([O-])c1cn(Cc2ccc(Cl)cc2)cn1
 : i, 0.9, 98, -3.2, 1, ., .
COc1ccc(S(=O)(=O)N(C)CC(=O)Nc2ccc3c(c2)OCO3)cc1OC
 : i, 0.99, 101, -3.6, -5, -78, 114
O=C(NCCN1CCCCC1)/C(=N\O)c1ccccc1
 : i, 0.97, 102, -4.0, 1, -14, 122
CCCCCCc1ccc(OCC(=O)O)cc1OCC(=O)O
 : i, 1.2, 104, -0.8, 0, -82, 62
CC(C)(C)C(=O)NNC(=O)c1cc2sccc2s1
 : i, 1, 100, ., ., ., .
COc1cc(/C=N/NC(=O)C23CC4CC(CC(C4)C2)C3)cc(Br)c1O
 : i, 0.87, 108, -0.6, -6, 38, 116
O=C(NCCCN1CCCC1)c1ccc(CSCc2cccc(Cl)c2)o1
 : i, 0.89, 89, -2.5, -3, 6, 121
COc1ccc(C(=O)Nc2cc([N+](=O)[O-])ccc2N2CCN(C)CC2)cc1
 : i, 0.92, 97, -0.6, -15, ., .
O=S(=O)(Nc1nccs1)c1cnc(Cl)c(Br)c1
 : i, 0.99, 59, 0.0, 2, 17, 131
O=C(NNC(=O)c1ccc(NC(=O)c2ccccc2)cc1)c1ccccc1
 : i, 0.92, 100, ., -5, ., .
COc1ccc(CCNC(=O)c2sc3ccccc3c2Cl)cc1OC
 : i, 0.97, 100, 0.8, 10, ., .
CCc1nc2ccccc2n1Cc1ccccc1F
 : i, 0.84, 101, ., 2, ., .
CC(C)c1ccc(S(=O)(=O)c2n[nH]n3c2nc(=O)c2ccccc23)cc1
 : i, 0.99, 102, -1.4, -2, 71, 126
CCOC(=O)c1cc2c(=O)n3cccc(C)c3nc2n(CCCOC)c1=NC(=O)c1cccnc1
 : i, 0.84, 100, 2.2, -10, ., .
Cc1ccc(S(=O)(=O)Cc2c(C)noc2C)cc1
 : i, 1, 99, -1.5, 0, 26, 74
O=C(OCC(=O)N1CCN(C(=O)c2ccco2)CC1)c1sc2cc(F)ccc2c1Cl
 : i, 1, 107, -0.3, -2, 9, 64

Next part, starting with the last four of the part before.
Each structure is followed by: HSV augment, HSV augment primary fold, RGS16-Gao HTS, GALR2 ag, PKD1 inh, INS promoter inh, INS promoter inh cell count
CC(C)c1ccc(S(=O)(=O)c2n[nH]n3c2nc(=O)c2ccccc23)cc1
 : i, 0.99, 102, -1.4, -2, 71, 126
CCOC(=O)c1cc2c(=O)n3cccc(C)c3nc2n(CCCOC)c1=NC(=O)c1cccnc1
 : i, 0.84, 100, 2.2, -10, ., .
Cc1ccc(S(=O)(=O)Cc2c(C)noc2C)cc1
 : i, 1, 99, -1.5, 0, 26, 74
O=C(OCC(=O)N1CCN(C(=O)c2ccco2)CC1)c1sc2cc(F)ccc2c1Cl
 : i, 1, 107, -0.3, -2, 9, 64
Cc1ccc(S(=O)(=O)N2CCOCC2)cc1NC(=O)CSc1nccn1C
 : i, 0.97, 101, -1.6, -9, ., .
Cc1cc(OCC(=O)Nc2nnc(C3CC3)s2)ccc1[N+](=O)[O-]
 : i, 0.78, 101, ., 1, 29, 107
CN1N=C(C(=O)N2CCN(c3ccc([N+](=O)[O-])cc3)CC2)CCC1=O
 : i, 1, 98, 0.1, -14, 14, 82
Cc1cc(Br)cc(C)c1NC(=O)c1ccc(C#N)cc1F
 : i, 1, 98, ., -4, ., .
NC(=O)c1ccsc1NC(=O)c1ccc(S(=O)(=O)N2CCCC2)cc1
 : i, 0.76, 113, ., -3, -18, 126
COc1cccc(Nc2nnc(SCC(=O)Nc3sccc3C(N)=O)s2)c1
 : i, 1.1, 99, ., -2, ., .
Cc1cccc(-c2cc3nc(-c4ccccc4)cc(N4CCC5(CC4)OCCO5)n3n2)c1
 : i, 0.88, 105, 0.1, -1, 50, 118
FC(F)(F)c1cccc(N2CCN(C(=S)NC3CCCCC3)CC2)c1
 : i, 0.95, 94, -1.6, 0, 5, 54
COc1cccc(-c2c[nH]c(=O)[nH]c2=O)c1
 : i, 1, 106, ., -6, ., .
O=C1N=C(N2CCCCC2)SC1=C1CCCC1
 : i, 0.97, 95, -1.8, 16, ., .
Cc1cc(NS(=O)(=O)c2ccc(CC(C)C)cc2)no1
 : i, 1.1, 95, -1.1, 2, -33, 103
COc1cc(NS(=O)(=O)c2ccc(F)cc2)c(C(=O)O)cc1OC
 : i, 1.1, 99, -1.1, -7, 0, 114
CC(=O)Nc1ccc(NC(=O)CN(c2ccc([N+](=O)[O-])cc2)S(=O)(=O)c2ccccc2)cc1
 : i, 1.2, 100, ., 4, ., .
CCC(NS(=O)(=O)c1cn(C)nc1C)c1ccccc1 (stereo unspecified)
 : i, 1, 100, ., 7, 5, 115
O=C(CSc1nc2ccccc2o1)N1c2ccccc2Sc2ccccc21
 : i, 0.93, 109, -2.4, -6, 54, 99
CCCCCOc1ccc(N2C(=O)C3C4C=CC(C3C2=O)N(C)C4=O)cc1 (stereo unspecified)
 : i, 1, 59, -0.8, -8, 18, 56
Cc1cccc(C)c1NC(=O)CCCSc1nnc(-c2ccc(Cl)cc2)n1-c1ccccc1
 : i, 0.92, 89, -0.6, 11, 35, 81
CCOC(=O)c1c(-c2ccccc2)oc2ccc(OC)cc12
 : i, 1, 86, -2.6, 5, 0, 132
Cc1c(CCC(=O)O)c(=O)n2c([nH]c3ccccc32)c1C#N
 : i, 1, 84, 0.9, -3, ., .
CC(=O)CC(C)(C)Nc1nc2cc([N+](=O)[O-])ccc2o1
 : i, 1.1, 99, ., ., ., .
COc1ccc([C@@H]2[C@H]3CN(C(C)=O)CC=C3C(C#N)=C(N)C2(C#N)C#N)c2ccccc12
 : i, 1, 97, -0.5, -9, -16, 118
O=C(c1cc2ccccc2oc1=O)N1CCN(c2ccc(N3CCOCC3)nn2)CC1
 : i, 1, 102, -1.5, -1, ., .
CC(C)CC(=O)Nc1cccc2c1C(=O)N(c1ccccc1)C2=O
 : i, 0.92, 193, -0.1, -6, 47, 148
Cc1csc(NC(=O)CSc2nnc(Cc3cccn3C)n2CCc2ccccc2)n1
 : i, 0.98, 100, -1.1, 0, ., .
COc1ccc(C)cc1S(=O)(=O)N(C)CC(=O)Nc1ccccc1
 : i, 1, 78, -2.3, -2, -154, 68
CCOc1ccc(C(=O)NN2C(=S)NC(C)(C)C=C2C)cc1
 : i, 0.99, 104, ., ., ., .
Cc1ccccc1CNC(=O)c1ccccc1C
 : i, 0.95, 57, -0.3, -5, 30, 153
Cn1c(Cn2cnc3ccccc32)nnc1SCc1ccccc1
 : i, 0.99, 107, -3.1, 19, -64, 140
Cc1nnc(Sc2c(N)n(C)c(=O)n(C)c2=O)s1
 : i, 1, 104, -1.3, -2, -14, 175
CC(C)(C)c1ccc(C(=O)NCC(=O)OCC(=O)c2ccc3c(c2)-c2ccccc2C3)cc1
 : i, 0.76, 107, 0.6, -9, 13, 103
O=C(O)CSCc1nc2ccccc2s1
 : i, 1, 88, -0.7, -14, -43, 53
O=C(CNC(=O)C1COc2ccccc2O1)N/N=C/c1ccc(O)cc1O (stereo unspecified)
 : i, 0.74, -1.7*, -0.8, 0, -7, 67
O=c1c2ccccc2sn1-c1ccc(S(=O)(=O)N2CCCCC2)cc1
 : i, 0.59, ., -1.7, -6, 28, 169
CCOc1ccc(CNc2ncnc(N)n2)cc1
 : i, 0.92, 106, -0.9, -5, 14, 96
O=C(NC1CCCc2ccccc21)C1CCC(CNc2c(N3CCOCC3)c(=O)c2=O)CC1 (stereo unspecified)
 : i, 0.84, 103, -0.4, 6, ., .
CCCOC(=O)c1ccc(OCC(O)CN2CCN(C(=O)c3ccccc3)CC2)cc1 (stereo unspecified)
 : i, 0.85, 110, -1.4, -5, 29, 115
CCN(Cc1ccncc1)Cc1cn[nH]c1-c1ccc(OC)cc1F
 : i, 1.1, 102, ., 8, 25, 105
CC1CCCC(n2cnc3cc(C(=O)O)ccc32)C1C (stereo unspecified)
 : i, 0.93, 94, ., -1, ., .
CSc1nsc(SCC(=O)Nc2c(C)n(C)n(-c3ccccc3)c2=O)n1
 : i, 0.91, 101, 0.9, 0, ., .
CCOc1ccc(NC(=O)C2CCN(S(=O)(=O)c3c(C)n[nH]c3C)CC2)cc1
 : i, 0.93, 104, -1.8, 0, ., .
Cc1cc(C(=O)COC(=O)c2ccc(Br)o2)c(C)n1C
 : i, 1, 108, ., -6, 24, 111
Cc1ccccc1CCNC(=O)C1CCN(S(=O)(=O)c2ccc(-n3cnnn3)cc2)CC1
 : i, 0.91, 101, -0.1, -10, -29, 121
Cc1cccc(N2CCN(C3=NC(=O)C(Cc4ccccc4)S3)CC2)c1 (stereo unspecified)
 : i, 0.95, 98, -1.1, 5, ., .
CC(C)CC(C(=O)Oc1ccc2c3c(c(=O)oc2c1)CCC3)N1C(=O)c2ccccc2C1=O (stereo unspecified)
 : ., ., 72, -1.4, 1, ., .
CCOC(=O)C1(Cc2ccc(Cl)cc2)CCN(C(=O)c2cnc(C)cn2)CC1
 : i, 1.1, 100, ., ., ., .
Cc1cc2cc3c(cc2nc1SCc1ccccn1)OCCO3
 : i, 1.1, 79, -0.8, -7, 7, 48
Cc1ccc(CCSc2ccc(C(C)C)cc2)cn1
 : i, 1, 99, -1.2, -8, 19, 112
O=C(COC(=O)[C@H](Cc1c[nH]c2ccccc12)NC(=O)c1cccs1)NCc1ccccc1
 : i, 0.62, 98, -2.9, 3, 3, 113
CCOC(=O)N1CCC(NC(=O)C2CCN(S(=O)(=O)c3ccc4c(c3)oc(=O)n4C)CC2)CC1
 : i, 0.95, 104, ., 5, -14, 85
Cc1ccc(Cl)cc1NC(=S)N(CCCN1CCOCC1)Cc1ccccn1
 : i, 1.1, 98, 0.1, -6, -12, 91
Cc1ccc(NC(=O)CSc2nnc(CNC(=O)c3c(F)cccc3Cl)o2)cc1
 : i, 1.1, 108, 0.6, -1, 50, 82
Cc1cc(C)c2cc(CN(Cc3cccs3)Cc3nnnn3CC3CCCO3)c(=O)[nH]c2c1 (stereo unspecified)
 : i, 0.89, 97, -0.6, -7, ., .
Cc1ccc(NC(=O)COC(=O)CCc2ccc(S(=O)(=O)N3CCOCC3)cc2)cc1F
 : i, 0.99, 102, ., 1, ., .
CCOC(=O)C(Cc1c(F)cccc1F)(NC(C)=O)C(=O)OCC
 : i, 0.98, 100, -2.2, 7, -100, 152
Cc1ccc(N2C(=O)CN(Cc3sccc3C)C2=S)cc1C
 : i, 0.97, 95, -1.9, 6, 3, 106
O=C(c1ccccc1)c1ccc(Oc2ncccn2)cc1
 : i, 1, 97, -1.9, -4, 14, 104
O=C(Nc1ccc(S(=O)(=O)N2CCCC2)cc1)c1cccnc1
 : i, 0.88, 106, -1.1, -2, 13, 113
O=c1[nH]cc(NCCc2ccccc2)c(=O)[nH]1
 : i, 0.93, 108, ., -6, 42, 185
CCN(C(=O)CSc1nnc(-c2ccncc2)n1C)C1CCS(=O)(=O)C1 (stereo unspecified)
 : i, 0.99, 106, -1.5, -3, -42, 126
CCCCOc1ccc(CONS(=O)(=O)c2ccc(NC(C)=O)cc2)cc1Cl
 : i, 0.87, 106, 1.0, 5, 12, 78

Remaining list, next part:
Each structure is followed by: HSV augment, HSV augment primary fold, RGS16-Gao HTS, GALR2 ag, PKD1 inh, INS promoter inh, INS promoter inh cell count
Cc1cccc(-n2c(=O)c3c(n4cnnc24)-c2ccccc2CC32CCCCC2)c1
 : i, 0.72, 105, 0.1, -4, 0, 120
CC(C)NC(=S)NN=C1c2ccccc2-c2ccccc21
 : i, 0.8, 97, ., 0, ., .
O=C(O)CC(Cc1ccc(Cl)cc1)C(=O)Nc1ccc([N+](=O)[O-])cc1 (stereo unspecified)
 : i, 1.1, 69, ., -3, -9, 44
C=CCNCC#CCOc1ccc(OC)cc1
 : i, 1, 120, -2.1, 1, 25, 84
CCN(CC)C(=O)Cn1cc(C(=O)C(=O)N2CC=C(c3ccccc3)CC2)c2ccccc21
 : ., ., 100, ., -7, -154, 100
Cc1cc2nc(/N=C(\N)NC(=O)N3c4ccccc4Sc4ccccc43)nc(C)c2cc1C
 : i, 0.81, 111, -0.5, -1, -16, 109
Cc1nc(N(C)Cc2ccccc2)c2nnn(Cc3ccccc3)c2n1
 : i, 0.97, 107, -1.4, -12, 0, 130
Cc1ccc(NC(=O)CCn2cccc2)cc1
 : i, 0.91, 103, -3.9, 2, 24, 107
CC(C)Cn1c(N)c(C(=O)COC(=O)CC23CC4CC(CC(C4)C2)C3)c(=O)n(C)c1=O
 : i, 0.98, 99, -2.0, 5, -17, 118
